Source: PubChem
HNF4A DNA FP: change in binding of human HNF4 alpha to DNA; P41235; activity change, % at 10 µM; HNF4a-FITC DNA binding, fluorescence polarization, 1 h; actives 0.3% (n = 360,000); in the data active = activity change above about 30%, passing the limit was not always enough;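 also: controls were the assay level and a saturating level of protein; the project sought stronger binding though the title names inhibitors; some compounds called inactive have numbers as strong as hits; positive values seem to mean higher polarization but the record does not say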
Target sequence (P41235 whole entry, looked up): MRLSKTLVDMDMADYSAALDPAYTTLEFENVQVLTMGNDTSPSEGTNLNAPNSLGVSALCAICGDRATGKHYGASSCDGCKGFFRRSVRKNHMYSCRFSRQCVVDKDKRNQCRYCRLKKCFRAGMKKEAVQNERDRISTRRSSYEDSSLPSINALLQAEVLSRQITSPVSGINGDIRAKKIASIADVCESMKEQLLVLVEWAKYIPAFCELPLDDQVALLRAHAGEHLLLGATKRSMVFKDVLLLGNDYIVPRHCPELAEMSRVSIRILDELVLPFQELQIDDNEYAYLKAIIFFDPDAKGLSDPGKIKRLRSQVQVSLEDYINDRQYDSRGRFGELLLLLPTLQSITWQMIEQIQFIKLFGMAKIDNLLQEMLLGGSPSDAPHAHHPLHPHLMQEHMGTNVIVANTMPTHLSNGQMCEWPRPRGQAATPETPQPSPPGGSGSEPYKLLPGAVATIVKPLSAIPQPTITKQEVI
AF4-AF9 inh: MLL-AF4/AF9 protein interaction inhibition | inhibition, % at 10 µM | P42568 | AlphaScreen, biotin-AF4 peptide binding to FLAG-AF9 | actives 0.47% (n = 350,000);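 active = every replicate reaching a set inhibition limit, whatever the replicate mean, cut at about 25% in these data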;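 also: 0% = plate neutral control median and 100% = total signal loss; the record names both 10 and 1 µM as test concentration; the first replicate is given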
Target sequence (P42568 whole entry, looked up): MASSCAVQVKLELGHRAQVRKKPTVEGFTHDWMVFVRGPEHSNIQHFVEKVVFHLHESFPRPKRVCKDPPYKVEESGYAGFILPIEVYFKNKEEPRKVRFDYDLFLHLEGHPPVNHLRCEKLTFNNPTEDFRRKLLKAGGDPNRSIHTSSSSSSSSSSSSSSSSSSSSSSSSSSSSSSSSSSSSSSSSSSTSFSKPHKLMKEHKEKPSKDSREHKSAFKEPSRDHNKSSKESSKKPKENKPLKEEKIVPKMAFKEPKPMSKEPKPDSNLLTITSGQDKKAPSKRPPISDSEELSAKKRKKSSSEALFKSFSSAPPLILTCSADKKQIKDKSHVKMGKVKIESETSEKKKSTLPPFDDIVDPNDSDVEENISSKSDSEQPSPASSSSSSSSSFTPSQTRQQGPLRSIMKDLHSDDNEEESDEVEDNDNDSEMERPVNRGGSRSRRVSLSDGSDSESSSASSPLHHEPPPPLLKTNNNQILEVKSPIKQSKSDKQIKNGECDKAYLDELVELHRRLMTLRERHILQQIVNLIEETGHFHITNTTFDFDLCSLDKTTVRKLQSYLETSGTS
FGF22 binding: FGF22 (human) thermal shift binding. calls only at 9.99 µM. actives 1.5% (n = 340,000). Q9HCT0. recombinant FGF22 thermal shift, SYPRO orange fluorescence; percent of sucrose octasulfate shift, DMSO zero. AID 651658;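 active = melting point raised past a set limit in the mean and every replicate; three in four hits are not shown here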
Vif TR-FRET: inhibitors of Vif binding to APOBEC3G peptide, primary screen, biochemical, TR-FRET, GST-Vif 1-94, biotin-A3G peptide, dose response retest (AID 1117319); inhibition, %; hits with a dose series show IC50 in µM; TR-FRET GST-Vif / biotin-A3G peptide binding; higher % means a stronger effect; test concentration not given here; strong numbers were not always called active; actives 0.57% (n = 260,000);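 active = above the screen mean plus three standard deviations and confirmed in dose response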;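 also: Vif residues 1-94 fused to GST binding biotinylated APOBEC3G peptide 110-148; 0% = full assay without inhibitor and 100% = GST in place of GST-Vif; retest series ran down from 100 µM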
E coli growth: inhibitors of Escherichia coli growth; OD600 absorbance (test concentration not listed); OD600, 23 h; stronger effect = lower value; actives 0.21% (n = 330,000);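 active = OD600 absorbance below the run mean of sample wells minus 3.6 SD, in any replicate, cut at about 0.56 in these data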;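 also: stock transfer was 300 nL into about 60 µL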
ALR H2O2 inh: blocks human ALR sulfhydryl oxidase activity. actives 3.8% (n = 290,000). inhibition, % (test concentration not listed). purified ALR, DTT oxidation, H2O2 HRP-luminol luminescence. P55789. AID 485317;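 active = mean and each replicate at 75% or more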;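 also: stock transfer was 7.5 nL into about 7.5 µL; 0% = neutral wells and 100% = wells with inactivated enzyme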
rRNA inh HTS: inhibitors of bacterial rRNA selective over humanized ribosomes; E. coli WT GFP vs humanized-ribosome RFP mutants, fluorescence, 24 h; stronger effect = lower value; DMSO median 0, no signal -100; GFP signal change (wild-type ribosome), % (no concentration beside the values); actives 1.6% (n = 350,000);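 active = significant combined selectivity score with lowered wild-type GFP, culture density cut under 30%, mutant RFP and density less affected; inactive = any of these conditions unmet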; also: one replicate is shown; some compounds called inactive have numbers as strong as hits
rRNA inh HTS OD600: also measured in rRNA inh HTS; calls as there; OD600 change, %; measured here: OD600 growth;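 optical density of the mix in the first replicate; 0 = DMSO median and -100 = no signal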
rRNA inh HTS RFP: also measured in rRNA inh HTS; calls as there; RFP signal change, %; measured here: RFP humanized mutant strains;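 first replicate; 0 = DMSO median and -100 = no signal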
* hit, by the source's call; i = inactive; / = not tested or not shown.

nr	HNF4A DNA FP	AF4-AF9 inh	FGF22 binding	Vif TR-FRET	SMILES	E coli growth	ALR H2O2 inh	rRNA inh HTS	rRNA inh HTS OD600	rRNA inh HTS RFP
1	-2.4	5.1	i	/	COc1ccc(-c2c(-c3ccccc3)n(C)c3ccccc23)cc1	0.677	-2.5	12.8	20.9	5.4
2	0.9	-2.5	i	-10.7%	CCOC(=O)c1nsnc1NCCSC(=N)N	0.676	43.0	11.1	5.6	-3.3
3	0.3	-19.5	i	/	COc1ccc(CN([C@H](CO)CC(C)C)S(=O)(=O)N(Cc2ccccc2)[C@H](CO)CC(C)C)cc1	/	-1.5	-0.3	-1.1	2.7
4	1.2	/	/	16.5%	N#Cc1ccsc1NC(=O)COC(=O)c1cc2ccccc2cc1O	0.694	-11.9	/	/	/
5	1.1	1.6	i	1.5%	Cc1ccc(C(CNS(=O)(=O)c2ccc([N+](=O)[O-])cc2)N2CCN(C)CC2)cc1 (centres undefined)	0.635	-18.8	-6.4	4.0	-1.9
6	0.0	/	/	-64.7%	Cc1nn(Cc2ccc(Cl)c(Cl)c2)c(C)c1NC(=O)c1sc2ccccc2c1Cl	0.733	-2.4	/	/	/
7	/	12.6	i	/	COc1cc(CN2CC3(CN(S(=O)(=O)c4cn(C)cn4)C3)c3c(n(C)c4cc(OC)ccc34)[C@H]2CO)cc(OC)c1	/	/	-1.9	-10.8	1.4
8	2.6	/	/	7.7%	CC12CC(NC(=O)N1CCc1ccccc1)c1cc(Cl)ccc1O2 (centres undefined)	0.773	-1.4	/	/	/
9	0.6	4.8	i	0.7%	CC/C(=N/N=C(\CC)c1ccccc1)c1ccccc1	/	-4.5	/	/	/
10	2.3	/	/	0.1%	O=C1CC(C(F)(F)C(F)(F)C(F)(F)C(F)(F)F)=Nc2ccccc2N1	0.719	-3.3	/	/	/
11	0.9	/	/	-0.2%	Cc1cccc(Oc2cnn(C(C)(C)C)c(=O)c2Cl)c1	0.647	6.0	/	/	/
12	-4.0	-5.2	i	/	C1=C(c2cn(-c3nc4ccccc4s3)nn2)CCCC1	/	/	-3.8	-27.4	-3.2
13	1.2	-15.0	i	29.1%	CCOC(=O)Nc1ccc(S(=O)(=O)NCc2ccccc2)cc1	0.724	-3.6	0.6	-4.5	-0.7
14	-1.0	-1.1	i	/	O=C(/C=C/c1ccccc1)NC(=S)Nc1ccccc1	0.692	-4.7	5.0	17.3	1.2
15	-2.6	/	/	69.4%	O=C(NN=C1CCCC1)C(=O)Nc1cccc(C(F)(F)F)c1	0.752	-1.5	/	/	/
16	/	-1.2	i	/	COc1cccc(-c2cccc(-c3nc(C(=O)N(C)C)cc4c3[C@H](CCO)N([S@@](=O)C(C)(C)C)C4)c2)c1	/	/	10.1	-6.0	1.9
17	0.0	-0.1	i	/	CCOc1cc(NCCN2CCOCC2)c([N+](=O)[O-])cc1OCC	0.66	1.9	-3.3	-3.0	-3.0
18	1.4	-1.1	i	/	Cc1ccc(C(=O)O)cc1NC(=S)NCCc1ccccc1	0.731	-1.1	5.6	4.1	-0.9
19	-1.2	0.1	i	-6.5%	CCCC1(CCC)C(=O)NC(=NCCc2ccc(OC)c(OC)c2)NC1=O	0.677	-14.1	-4.3	-0.8	-1.2
20	2.8	-0.7	i	/	O=C(Nc1cccc([N+](=O)[O-])c1)NC1CCCCCCC1	0.641	19.7	-51.6	-83.2	-18.2
21	-1.2	-1.0	i	/	CC1(C(=O)Nc2ccc3c(c2)OCO3)CCN1C(=O)Cc1ccc(-c2ccccc2)cc1 (centres undefined)	/	/	-0.4	-18.3	3.6
22	-0.2	-1.2	i	-4.9%	COc1cc(/C=C2\SC(=S)N(c3cccnc3)C2=O)ccc1O	/	-1.5	-16.8	-29.4	-2.2
23	2.9	-1.0	i	8.8%	Cc1cc(N2CCN(C)CC2)nc2ccc(NC(=O)CCC(=O)NCCc3ccc(Cl)cc3)cc12	0.664	/	0.5	2.0	-5.1
24	3.4	/	/	1.2%	COc1ccc(OCC(=O)Nc2cc(C)c(Cl)cc2OC)c([N+](=O)[O-])c1	0.682	-2.9	/	/	/
25	3.1	/	/	-1.7%	O=S(=O)(c1ccc(OCC(O)CN2CCN(c3ccccc3)CC2)cc1)N1CCOCC1 (centres undefined)	0.671	69.9	/	/	/
26	-1.8	2.1	/	/	C=CCOc1ccc(/C=N/NC(=O)CN2CCCCC2)cc1OC	/	/	13.9	16.4	1.5
27	0.6	-1.3	i	0.4%	COc1ccc(NC(=O)CSCC(=O)Nc2nnc(C3CC3)s2)cc1	0.633	12.7	9.9	14.4	1.6
28	-4.1	0.1	i	/	CC1O[C@@H](OC2C(COC3OC(CO)C(O)[C@H](O)C3O)OC(OC3CC[C@]4(C)C(CC[C@@]5(C)[C@@H]4CC=C4[C@@H]6CC(C)(C)CC[C@]6(CO)C(O)C[C@]45C)C3(C)C)C(O)C2O)C(O)C(O)C1O (some centres undefined)	/	0.2	3.3	0.1	-1.6
29	4.0	-1.2	i	-2.7%	CN1CCN(C(=O)C2CCCN(S(=O)(=O)c3ccccc3)C2)CC1 (centres undefined)	0.652	3.6	12.1	5.5	-1.0
30	/	-4.3	i	/	COc1ccc(S(=O)(=O)Nc2ccc3c(c2)C(=O)N([C@@H](C)CO)C[C@@H](C)[C@H](CN(C)Cc2ccc4c(c2)OCO4)OCCCC[C@@H](C)O3)cc1	/	/	4.1	-3.9	1.4
31	56.8*	-2.1	i	8.9%	Cc1cc(C)c2c(c1)CC(C)(C)CC2=O	0.633	/	14.6	13.9	4.1
32	-0.8	0.1	i	/	Cc1ccc(Nc2cc(=O)n(C)c(=O)[nH]2)cc1C	/	/	1.7	10.9	-1.9
33	0.1	0.1	i	-5.9%	CC(=O)Oc1cccc(C2C3=C(CC(C)(C)CC3=O)Nc3ccccc3N2C(C)=O)c1 (centres undefined)	0.62	1.3	3.5	4.1	-1.7
34	3.2	1.0	i	-6.1%	CSc1ncccc1C(=O)Nc1nc2ccc(S(C)(=O)=O)cc2s1	0.658	/	-8.2	-3.6	-1.1
35	-1.1	/	/	24.6%	O=C(NCCN1CCOCC1)Nc1ccc(Cl)cc1Cl	0.663	-0.3	/	/	/
36	2.2	4.8	i	/	O=C(CC1S/C(=N/N=C/c2c[nH]c3ccccc23)NC1=O)Nc1ccccc1 (centres undefined)	/	/	-0.1	-1.3	0.2
37	-4.5	/	/	1.9%	CCOC(=O)NNC1CC(=O)N(c2ccc(OC)cc2)C1=O (centres undefined)	0.652	-8.8	/	/	/
38	-1.2	/	/	5.7%	O=C(/C=C/c1ccccc1)N1CCN(c2cccc(Cl)n2)CC1	0.731	-6.2	/	/	/
39	/	-3.3	i	/	Cc1ccc(S(=O)(=O)Nc2ccc3c(c2)C(=O)N([C@@H](C)CO)C[C@H](C)[C@@H](CN(C)S(=O)(=O)c2ccc(Cl)cc2)O3)cc1	/	/	-1.1	0.2	-1.3
40	/	5.0	i	/	Cc1ccc(S(=O)(=O)Nc2ccc3c(c2)C(=O)N([C@@H](C)CO)C[C@H](C)[C@@H](CN(C)C(=O)Nc2ccc4c(c2)OCO4)OCCCC[C@H](C)O3)cc1	/	/	-0.7	2.9	-1.5
41	0.7	1.8	i	/	CON(C)S(=O)(=O)c1cccc(C(=O)NC2CCSc3ccccc32)c1 (centres undefined)	0.702	-12.8	-4.2	-11.8	3.4
42	/	1.4	i	/	CCC(=O)Nc1ccc2c(c1)OC[C@@H](C)N(Cc1ccccc1OC)C[C@@H](C)[C@H](OC)CN(C)C2=O	/	/	0.3	1.0	0.1
43	-2.3	/	/	-0.1%	CC(=O)NS(=O)(=O)c1ccc(NC(=O)NC2CCCCC2)cc1	0.723	-4.6	/	/	/
44	-3.3	/	/	29.4%	O=C(CC1CCCCC1)c1c(O)c2ccccc2oc1=O	0.688	97.2*	/	/	/
45	0.1	/	/	1.0%	Cc1ccc(-c2nc(=S)c3c(n2CC2CCCO2)CC(C)(C)OC3)cc1 (centres undefined)	0.682	/	/	/	/
46	-1.5	-3.2	i	-4.1%	OCC1C2c3ccccc3C(c3ccccc32)C1CO (centres undefined)	0.666	5.3	8.6	14.3	0.2
47	1.3	1.2	i	/	O=S(=O)(/N=C(/c1ccccc1)N1CCOCC1)c1ccc(Br)cc1	/	-25.4	-1.8	6.9	0.9
48	0.5	/	/	-3.9%	CCCCNC(=O)CCCn1c(=S)[nH]c2cc3c(cc2c1=O)OCO3	0.724	3.1	/	/	/
49	/	-1.1	i	/	CN1C(=O)c2cc(NS(=O)(=O)c3ccccc3Cl)ccc2OC[C@H]2O[C@@H](CC(=O)O)CC[C@@H]21	/	/	6.3	11.0	3.6
50	-1.3	-2.1	i	-5.4%	CCOc1cc(S(=O)(=O)n2nc(C)cc2C)ccc1Br	0.656	-17.9	-12.0	-4.7	-3.3

(listing goes on)
nr	HNF4A DNA FP	AF4-AF9 inh	FGF22 binding	Vif TR-FRET	SMILES	E coli growth	ALR H2O2 inh	rRNA inh HTS	rRNA inh HTS OD600	rRNA inh HTS RFP
51	4.8	-6.3	i	29.5%	NC(=S)NC(=O)c1ccccc1	0.645	0.9	10.9	8.7	-1.1
52	-2.7	/	/	/	COc1ccccc1NC(=S)N(CCCN1CCOCC1)Cc1ccccn1	0.673	0.3	/	/	/
53	/	-0.1	i	/	O=C(c1ccncc1)N1C[C@H]2[C@@H](c3ccccc31)[C@@H](CO)N2C(=O)c1ccncc1	/	/	5.8	2.9	-2.3
54	-1.2	-2.0	i	-1.1%	CCc1nnc(SCC(=O)Nc2nc(C)c(C(=O)N(C)C)s2)n1CC	0.703	-3.0	9.1	0.2	-2.4
55	4.1	2.8	i	-6.9%	Cc1cc(C)n2nc(C(=O)OCC(=O)N(C)C3CCCCC3)nc2n1	0.684	-3.8	6.5	12.4	0.9
56	/	-1.0	i	/	COC(=O)C[C@@H]1C[C@@H]2c3cc(NC(=O)C4CCC4)ccc3O[C@@H]2[C@@H](CO)O1	/	/	0.4	7.6	0.2
57	1.4	/	/	11.2%	CCC(C)(C)n1nnnc1C(c1cc2cc(C)ccc2[nH]c1=O)N1CCCC1 (centres undefined)	0.666	1.0	/	/	/
58	/	1.0	i	/	CCCC#Cc1ccc2c(c1)O[C@H](CN(C)C(=O)c1ccccn1)[C@@H](C)CN([C@@H](C)CO)S2(=O)=O	/	/	-1.3	-7.2	-4.6
59	-0.9	-13.1	/	10.3%	COC(CCN(C)C)(c1ccccc1)c1ccccc1	0.694	0.2	4.5	5.1	-7.1
60	0.7	-0.3	i	/	CC(C)CC(=O)N1CCN(c2ccc(NC(=O)c3ccco3)cc2)CC1	0.735	17.6	-0.9	-2.5	-1.1
61	6.8	0.2	/	/	CO/N=C/c1cccn1-c1nccc(N(C)C)c1C#N	/	-5.5	8.4	5.6	1.7

Whole records as entered above:
Listed for COC(=O)C[C@@H]1C[C@@H]2c3cc(NC(=O)C4CCC4)ccc3O[C@@H]2[C@@H](CO)O1 = HNF4A DNA FP: /; AF4-AF9 inh: -1.0; FGF22 binding: i; Vif TR-FRET: /; E coli growth: /; ALR H2O2 inh: /; rRNA inh HTS: 0.4; rRNA inh HTS OD600: 7.6; rRNA inh HTS RFP: 0.2
Listed for O=C(c1ccncc1)N1C[C@H]2[C@@H](c3ccccc31)[C@@H](CO)N2C(=O)c1ccncc1 = HNF4A DNA FP: /; AF4-AF9 inh: -0.1; FGF22 binding: i; Vif TR-FRET: /; E coli growth: /; ALR H2O2 inh: /; rRNA inh HTS: 5.8; rRNA inh HTS OD600: 2.9; rRNA inh HTS RFP: -2.3

Not all compounds are listed (hit frequency here may not be typical).
